Screens: PubChem, National Center for Advancing Translational Sciences (NCATS)
miR-21 FLuc – raises the signal of a miR-21 reporter; Potency, µM (doses to about 38.3 µM), without a hit: at the highest dose reporter change, positive = more light; AID 2288; HeLa miR-21 FLuc reporter, luciferase, 48 h; 340,000 tested, under 10 active; active = well fitted rising curve with a large enough effect; inconclusive = small, poorly fitted or top-dose-only effect; inactive = no such curve, though single readings can be large or run the other way;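 also: % of control where 0% means no effect; miR-21 action dims this reporter so a rising signal means less miR-21 action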
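HeLa cells endogenously expressing miR-21, stably carrying CMV-driven firefly luciferase with a downstream miR-21 binding site, 2000 cells/well. Titrations up to approximately 40 uM, 48 hours; luciferase luminescence read.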
Rango release inh – inhibitors of RanGTP-induced Rango-importin beta complex dissociation; O95149+P62826; Biochemical FRET Rango-importin beta, RanGTP-induced dissociation; Potency, µM (top dose mostly 46.1 µM), without a hit: top-dose activity change, negative = inhibition; hit rate 0.071% among 340,000; active means falling FRET ratio curve, often poorly fitted, with flat reads before Ran was added; inconclusive means other falling curves, or compound fluorescence or quenching; inactive means flat or rising ratio curve;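 also: potency is read from the fitted curve at half-maximal effect; % of control where 0% means no effect; nearly all actives have a fitted effect of over 45% in size; -100% = wells without RanGTP and RCC1; the record marks most hits as doubtful in a second field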
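Compounds sat 5 min at room temperature with 0.1 uM Rango biosensor plus 0.25 uM importin beta, then FRET pre-read. RanGTP-RCC1 (0.6 uM Ran, 2mM GTP, 0.2 uM RCC1) added for 45 min, and the CFP/YFP post-read measured blocked complex dissociation.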
GLA inh pH 4.5 – inhibitors of human alpha-galactosidase A at pH 4.5; purified enzyme, 4-MU-alpha-Gal fluorescence, pH 4.5; P06280; activity change, negative = inhibition, % at 105 µM; 230,000 tested, under 10 active; inconclusive = small, poorly fitted or top-dose-only inhibition, or a rising curve; inactive = flat fitted curve, though single readings scatter; no compound was filed as active;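 also: 0% = full activity with enzyme and -100% = basal without enzyme; dose as in the result columns while the protocol names 77 µM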
Target sequence (P06280 whole entry, looked up): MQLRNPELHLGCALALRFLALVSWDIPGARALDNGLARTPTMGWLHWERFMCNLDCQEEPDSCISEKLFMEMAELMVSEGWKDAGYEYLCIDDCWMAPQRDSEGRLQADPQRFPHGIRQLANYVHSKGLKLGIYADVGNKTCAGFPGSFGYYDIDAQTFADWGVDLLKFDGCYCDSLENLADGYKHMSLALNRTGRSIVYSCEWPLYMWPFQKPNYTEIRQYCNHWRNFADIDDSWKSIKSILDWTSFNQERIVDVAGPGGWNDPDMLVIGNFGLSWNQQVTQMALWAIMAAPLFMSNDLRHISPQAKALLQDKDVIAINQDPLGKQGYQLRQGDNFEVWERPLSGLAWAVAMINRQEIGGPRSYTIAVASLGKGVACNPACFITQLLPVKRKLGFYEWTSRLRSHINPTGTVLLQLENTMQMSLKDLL
Rango complex inh – prevents formation of the Rango-importin beta complex. AID 540263. hit rate 0.031% among 340,000. Rango CFP/YFP FRET sensor + importin beta, 45 min. Potency, µM (series often up to 92.2 µM), for inactives: at the top dose inhibition of complex formation; active = rising FRET ratio curve, often small or poorly fitted; inconclusive = mostly compound fluorescence or quenching in the first reads; inactive = flat curves in all reads;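 also: potency is read from the fitted curve at half-maximal effect; 0% = DMSO wells and 100% = buffer wells lacking importin beta; nearly all actives have a fitted effect of over 15% in size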
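Inhibition scored from the CFP 486 nm/YFP 530 nm FRET ratio 45 min after adding 0.125 microM importin beta to 50 nM Rango biosensor preincubated 5 min with compound (room temperature, PBS with DTT, Tween-20, BSA). No-importin wells as positive control.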
* marks the source's active call; other numbers are inactive results. This is a subset; the hit share may differ from the screen's.

How did CC(C)NC1(C#N)CCN(Cc2ccccc2)CC1 do in these assays?
Rango release inh: 1%; Rango complex inh: -3.7%

How did O=C(NCC(=O)N(c1cccnc1)C(C(=O)NC1CCCCC1)c1ccccc1)c1ccco1 (centres undefined) do in these assays?
miR-21 FLuc: 2%; Rango release inh: -10%; Rango complex inh: -0.3%

Results for COc1ccccc1NC(=O)c1ccc(NC(=O)COC(=O)C2CC2C)cc1 (centres undefined) ?
miR-21 FLuc: -4%; Rango release inh: -7%; GLA inh pH 4.5: -8; Rango complex inh: -4.3%

Results for O=C(COc1cc2oc(=O)c3c(c2cc1Cl)CCC3)NCCCN1CCCC1=O ?
miR-21 FLuc: -7%; Rango release inh: 2%; Rango complex inh: -0.2%

What do the screens show for `S=C(Nc1ccccc1)N1CCC(Cc2ccccc2)CC1`?
miR-21 FLuc: 12%; Rango release inh: -11%; Rango complex inh: 5.6%

How did CC(=O)N1CCc2cc(S(=O)(=O)NC(CC(C)C)C(=O)N3CCn4c3nc3ccccc34)ccc21 (centres undefined) do in these assays?
miR-21 FLuc: -1%; Rango release inh: 8%; GLA inh pH 4.5: -5; Rango complex inh: -0.8%

What do the screens show for `CN1CCN(c2ccc(Cl)cc2NC(=O)CC2OC(=O)c3ccccc32)CC1` (centres undefined)?
Rango release inh: -1%; Rango complex inh: 4.2%

What do the screens show for `O=C(Cc1ccc2c(c1)OCCO2)Nc1cc(Cl)ccc1N1CCOCC1`?
Rango release inh: -15%; Rango complex inh: 0.0%

Results for COc1cc(C)c(S(=O)(=O)Nc2ccc(CC(=O)O)cc2)cc1C ?
miR-21 FLuc: -12%; Rango release inh: -8%; GLA inh pH 4.5: 4; Rango complex inh: -2.8%

Results for COCCCNC(=S)N(CCO)Cc1cc2cc3c(cc2[nH]c1=O)OCCO3 ?
miR-21 FLuc: -8%; Rango release inh: 0%; Rango complex inh: -0.5%

What do the screens show for `Nc1cc(Cl)ccc1N1CCCCCC1`?
miR-21 FLuc: 15%; Rango release inh: -7%; GLA inh pH 4.5: -2; Rango complex inh: -2.1%

What do the screens show for `Cc1ccc(OCC(=O)NCc2cccs2)cc1`?
miR-21 FLuc: 0%; Rango release inh: -8%; GLA inh pH 4.5: -2; Rango complex inh: 1.9%

Results for CC1CN(c2oc(-c3ccccc3Cl)nc2C#N)CC(C)O1 (centres undefined) ?
miR-21 FLuc: -6%; Rango release inh: -9%; GLA inh pH 4.5: 2; Rango complex inh: 1.9%

What do the screens show for `O=C(COc1ncnc2sccc12)NC1CCCCC1`?
Rango release inh: 1%; Rango complex inh: 4.9%

Results for COc1cc(S(=O)(=O)Nc2ccncc2)ccc1F ?
miR-21 FLuc: 0%; Rango release inh: -4%; GLA inh pH 4.5: -10; Rango complex inh: -0.5%

How did C=CCN(CCNP(=O)(OCC)OCC)CP(=O)(OCC)OCC do in these assays?
miR-21 FLuc: -3%; Rango release inh: 1%; GLA inh pH 4.5: 2; Rango complex inh: 0.5%

Results for COc1ccc(N=C(N)N=C(N)N)c(OC)c1 ?
miR-21 FLuc: -2%; Rango release inh: -8%; GLA inh pH 4.5: -8; Rango complex inh: -1.5%

How did C(#Cc1ccccc1)C[N+]1(CC#Cc2ccccc2)CCCC1 do in these assays?
miR-21 FLuc: 25%; Rango release inh: -5%; GLA inh pH 4.5: 11; Rango complex inh: 0.0%

How did Cc1cc(O)c(C(=O)/C=C/c2ccccc2O)c(=O)o1 do in these assays?
miR-21 FLuc: -8%; Rango release inh: -10%; Rango complex inh: 4.6%

How did CCCCN(CC)C(=O)CN(C)S(=O)(=O)c1cccc2nsnc12 do in these assays?
miR-21 FLuc: 1%; Rango release inh: 4%; GLA inh pH 4.5: -1; Rango complex inh: 0.6%

Results for Cc1ccc(CNC(=O)C2CCN(S(=O)(=O)c3cccs3)CC2)o1 ?
miR-21 FLuc: -2%; Rango release inh: -15%; GLA inh pH 4.5: -13; Rango complex inh: 1.0%

Results for O=C1NC(=O)C2(COC(c3cccc([N+](=O)[O-])c3)OC2)S1 (centres undefined) ?
miR-21 FLuc: -8%; Rango release inh: -5%; GLA inh pH 4.5: -4; Rango complex inh: 1.7%

How did Cc1ccc(NC(=O)CNC(=O)c2cccc(C)c2)nc1 do in these assays?
Rango release inh: -2%; Rango complex inh: -2.9%

How did Cc1ccc(S(=O)(=O)Nc2ccc(-c3nc4ccc(C)cc4s3)cc2)cc1 do in these assays?
miR-21 FLuc: -20%; Rango release inh: -25%; GLA inh pH 4.5: inconclusive; Rango complex inh: -2.8%

What do the screens show for `Cc1cccc(NC(=S)N/N=C/c2cccn2Cc2ccc(F)cc2)c1`?
miR-21 FLuc: 23%; Rango release inh: 22%; GLA inh pH 4.5: -2; Rango complex inh: 0.0%

Results for CC(=O)c1ccc(OCC(=O)NCCC2=CCCCC2)cc1 ?
Rango release inh: -8%; Rango complex inh: 0.6%

Results for O=C1CSC(=S)N1/N=C/c1ccc2c(c1)OCCO2 ?
miR-21 FLuc: -28%; Rango release inh: 0%; Rango complex inh: -2.2%

Results for O=C(NCCCN1CCOCC1)c1ccc(CNS(=O)(=O)c2ccc(Br)cc2)cc1 ?
miR-21 FLuc: -10%; Rango release inh: 6%; GLA inh pH 4.5: 8; Rango complex inh: 1.7%

What do the screens show for `Cc1cccc(N2CCN(c3ccc(N4C(=O)CCCC4=O)cc3[N+](=O)[O-])CC2)c1C`?
miR-21 FLuc: -1%; Rango release inh: -1%; GLA inh pH 4.5: -7; Rango complex inh: -0.6%

What do the screens show for `CC(C)C[C@@H](CO)N1CCN(Cc2cccc(C#N)c2)CCC1=O`?
miR-21 FLuc: 0%; Rango release inh: -14%; Rango complex inh: -1.4%

Fetched by compound from the list above:
How did Cc1cc(O)c(C(=O)/C=C/c2ccccc2O)c(=O)o1 do in these assays?
miR-21 FLuc: -8%; Rango release inh: -10%; Rango complex inh: 4.6%

Results for CC(=O)c1ccc(OCC(=O)NCCC2=CCCCC2)cc1 ?
Rango release inh: -8%; Rango complex inh: 0.6%

Results for O=C1NC(=O)C2(COC(c3cccc([N+](=O)[O-])c3)OC2)S1 (centres undefined) ?
miR-21 FLuc: -8%; Rango release inh: -5%; GLA inh pH 4.5: -4; Rango complex inh: 1.7%

Results for COc1ccc(N=C(N)N=C(N)N)c(OC)c1 ?
miR-21 FLuc: -2%; Rango release inh: -8%; GLA inh pH 4.5: -8; Rango complex inh: -1.5%

(listing goes on)
What do the screens show for `COc1cc(C(=O)N2C[C@H]3CC[C@H]2C3)ccc1OC1CCN(C(C)=O)CC1`?
miR-21 FLuc: -3%; Rango release inh: 11%; Rango complex inh: -2.1%

How did CCOP(=O)(OCC)c1nc(-c2ccc(Br)cc2)oc1N1CCCCC1 do in these assays?
miR-21 FLuc: 5%; Rango release inh: -11%; Rango complex inh: 0.2%

Results for O=S(=O)(NCc1ccccc1)c1ccc(S(=O)(=O)NCC2CCCO2)cc1 (centres undefined) ?
miR-21 FLuc: 2%; Rango release inh: -11%; GLA inh pH 4.5: -4; Rango complex inh: 1.1%

How did O=C1CNC(=S)N1C1CCCCCC1 do in these assays?
miR-21 FLuc: 3%; Rango release inh: -14%; Rango complex inh: -2.5%

How did O=C(O)CC1(CC(=O)Nc2ccc3c(c2)OCCCO3)CCCCC1 do in these assays?
miR-21 FLuc: -2%; Rango release inh: 0%; GLA inh pH 4.5: 4; Rango complex inh: 3.8%

How did COC(=O)c1ccc(-c2nc(-c3ccc(Br)o3)no2)cc1 do in these assays?
miR-21 FLuc: -24%; Rango release inh: -13%; GLA inh pH 4.5: 7; Rango complex inh: 0.1%

How did O=C(Nc1ccc2c(c1)OCCO2)C1CCN(c2cnccn2)CC1 do in these assays?
miR-21 FLuc: -9%; Rango release inh: -18%; GLA inh pH 4.5: 3; Rango complex inh: inconclusive

How did CC(=O)NC(Cc1cccc(F)c1)C(=O)NC1CCN(C(=O)Nc2ccc(C)cc2)CC1 (centres undefined) do in these assays?
miR-21 FLuc: 0%; Rango release inh: 17%; Rango complex inh: 3.0%

Results for N#CC1(NC(=O)CSc2nc3ccccc3o2)CCCCC1 ?
Rango release inh: -3%; Rango complex inh: 1.5%

How did CCOC(=O)c1c(C)c(C(=O)N2CCN(c3ccccc3)CC2)c(C)n1C do in these assays?
miR-21 FLuc: -1%; Rango release inh: 0%; GLA inh pH 4.5: 2; Rango complex inh: 0.4%

What do the screens show for `Cc1ccc2c(C)c(C(=O)N3CCC(N4CCC(C(=O)NC5CC5)CC4)CC3)oc2c1`?
miR-21 FLuc: -7%; Rango release inh: 1%; GLA inh pH 4.5: -1; Rango complex inh: inconclusive

How did CCOc1cc2nc(-c3ccc(OC)c(OC)c3)nc(N3CCOCC3)c2cc1OC do in these assays?
miR-21 FLuc: 8%; Rango release inh: 3%; GLA inh pH 4.5: 7; Rango complex inh: -3.6%

How did COc1ccc2oc(C(=O)N3CCN(S(=O)(=O)c4ccc(F)cc4)CC3)c(C)c2c1 do in these assays?
Rango release inh: 5%; Rango complex inh: 1.8%

How did CC(C)(C)NC(=O)C(c1ccccc1)N(Cc1ccco1)C(=O)c1csnn1 (centres undefined) do in these assays?
miR-21 FLuc: -6%; Rango release inh: 15%; GLA inh pH 4.5: 2; Rango complex inh: -4.7%

Results for COc1cccc(CNCc2cc(OC)cc(OC)c2)c1 ?
miR-21 FLuc: 10%; Rango release inh: -3%; Rango complex inh: -0.4%

What do the screens show for `CC(=O)OCC(=O)Nc1ccc(Br)c(C)c1`?
miR-21 FLuc: -4%; Rango release inh: 11%; GLA inh pH 4.5: 4; Rango complex inh: 0.3%

What do the screens show for `N#CCc1ccc(OC(=O)Nc2ccccc2)cc1`?
miR-21 FLuc: -31%; Rango release inh: 36%; Rango complex inh: -0.4%

How did O=C(CN1C(=O)c2ccccc2C1=O)NN1C(=O)c2ccccc2C1=O do in these assays?
miR-21 FLuc: -24%; Rango release inh: -10%; GLA inh pH 4.5: 2; Rango complex inh: -0.6%

What do the screens show for `Cc1c(NC(=O)Nc2cccc(C(F)(F)F)c2)c(=O)n(-c2ccccc2)n1C`?
miR-21 FLuc: 4%; Rango release inh: 9%; Rango complex inh: 5.0%

How did COc1cccc(OCC(O)CNC(=O)c2oc3c(C)c(C)ccc3c2C)c1 (centres undefined) do in these assays?
miR-21 FLuc: -6%; Rango release inh: -9%; Rango complex inh: 0.6%

Results for COc1ccc(S(=O)(=O)N2CCCCC2)cc1NC(=O)CSc1nccn1C ?
miR-21 FLuc: -9%; Rango release inh: -17%; GLA inh pH 4.5: -2; Rango complex inh: 5.8%

How did Cc1ccccc1Nc1ncnc(N)n1 do in these assays?
miR-21 FLuc: -4%; Rango release inh: -4%; GLA inh pH 4.5: 4; Rango complex inh: -4.1%

What do the screens show for `COc1cc2c(cc1OC)CN(C(=O)C1CCCN(C(=O)c3ccc(Cl)cc3)C1)CC2` (centres undefined)?
Rango release inh: 1%; Rango complex inh: 0.0%

Results for c1ccc(OCc2nn3c(-c4ccccn4)nnc3s2)cc1 ?
miR-21 FLuc: -38%; Rango release inh: 2%; GLA inh pH 4.5: 6; Rango complex inh: 2.5%

5 structures already listed, sorted by molar mass, falling.
What do the screens show for `COc1cc2c(cc1OC)CN(C(=O)C1CCCN(C(=O)c3ccc(Cl)cc3)C1)CC2` (centres undefined)?
Rango release inh: 1%; Rango complex inh: 0.0%

What do the screens show for `Cc1c(NC(=O)Nc2cccc(C(F)(F)F)c2)c(=O)n(-c2ccccc2)n1C`?
miR-21 FLuc: 4%; Rango release inh: 9%; Rango complex inh: 5.0%

How did O=C(CN1C(=O)c2ccccc2C1=O)NN1C(=O)c2ccccc2C1=O do in these assays?
miR-21 FLuc: -24%; Rango release inh: -10%; GLA inh pH 4.5: 2; Rango complex inh: -0.6%

Results for c1ccc(OCc2nn3c(-c4ccccn4)nnc3s2)cc1 ?
miR-21 FLuc: -38%; Rango release inh: 2%; GLA inh pH 4.5: 6; Rango complex inh: 2.5%

What do the screens show for `CC(=O)OCC(=O)Nc1ccc(Br)c(C)c1`?
miR-21 FLuc: -4%; Rango release inh: 11%; GLA inh pH 4.5: 4; Rango complex inh: 0.3%
